# Rango-impB inh = inhibitors of Rango-importin beta complex formation; actives 0.031% (n = 340,000); Q14974; Rango CFP/YFP FRET sensor + importin beta, 45 min; Potency, µM (series often up to 92.2 µM), inactives show at the top dose inhibition of complex formation; AID 540263; active = rising FRET ratio curve, often small or poorly fitted; inconclusive = mostly compound fluorescence or quenching in the first reads; inactive = flat curves in all reads;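 also: potency is read from the fitted curve at half-maximal effect; 0% = DMSO wells and 100% = buffer wells lacking importin beta; nearly all actives have a fitted effect of over 15% in size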
#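 FRET biosensor Rango (snurportin 1 IBB between N-terminal EYFP and C-terminal Cerulean), 50 nM in PBS/1 mM DTT/0.02% Tween-20/0.1% BSA, preincubated 5 min RT with compound; 0.125 microM importin beta added, 45 min RT, CFP/YFP FRET ratio read.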
# miR-21 FLuc = miR-21 reporter, rising signal. HeLa miR-21 FLuc reporter, luciferase, 48 h. Potency, µM (series often up to 38.3 µM), for inactives: at the highest dose reporter change, positive = more light. 340,000 tested, under 10 active. AID 2288; active = well fitted rising curve with a large enough effect; inconclusive = small, poorly fitted or top-dose-only effect; inactive = no such curve, though single readings can be large or run the other way;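 also: % of control where 0% means no effect; miR-21 action dims this reporter so a rising signal means less miR-21 action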
#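 HeLa miR-21-FLuc reporter line, endogenous miR-21; 2000 cells/well in DMEM/10% FBS; compound titration up to ~40uM final, 48 h, 37 degree Celsius; luciferase detection reagent, 15 min lysis, CCD luminescence.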
# Rango dissoc inh = inhibitors of RanGTP-induced Rango-importin beta complex dissociation | actives 0.071% (n = 340,000) | O95149+P62826 | Biochemical FRET Rango-importin beta, RanGTP-induced dissociation | AID 540253 | Potency, µM (top dose mostly 46.1 µM), without a hit: at the highest dose activity change, negative = inhibition; active means falling FRET ratio curve, often poorly fitted, with flat reads before Ran was added; inconclusive means other falling curves, or compound fluorescence or quenching; inactive means flat or rising ratio curve;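 also: potency is read from the fitted curve at half-maximal effect; % of control where 0% means no effect; nearly all actives have a fitted effect of over 45% in size; -100% = wells without RanGTP and RCC1; the record marks most hits as doubtful in a second field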
#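 Compounds sat 5 min at room temperature with 0.1 uM Rango biosensor plus 0.25 uM importin beta, then FRET pre-read. RanGTP-RCC1 (0.6 uM Ran, 2mM GTP, 0.2 uM RCC1) added for 45 min, and the CFP/YFP post-read measured blocked complex dissociation.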
# GLA inh pH 4.5 = alpha-galactosidase A (human) inhibition, pH 4.5; P06280; purified enzyme, 4-MU-alpha-Gal fluorescence, pH 4.5; activity change, negative = inhibition, % at 105 µM; 230,000 tested, under 10 active; AID 1467; inconclusive = small, poorly fitted or top-dose-only inhibition, or a rising curve; inactive = flat fitted curve, though single readings scatter; no compound was filed as active;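 also: 0% = full activity with enzyme and -100% = basal without enzyme; dose as in the result columns while the protocol names 77 µM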
# Target sequence (P06280 whole entry, looked up): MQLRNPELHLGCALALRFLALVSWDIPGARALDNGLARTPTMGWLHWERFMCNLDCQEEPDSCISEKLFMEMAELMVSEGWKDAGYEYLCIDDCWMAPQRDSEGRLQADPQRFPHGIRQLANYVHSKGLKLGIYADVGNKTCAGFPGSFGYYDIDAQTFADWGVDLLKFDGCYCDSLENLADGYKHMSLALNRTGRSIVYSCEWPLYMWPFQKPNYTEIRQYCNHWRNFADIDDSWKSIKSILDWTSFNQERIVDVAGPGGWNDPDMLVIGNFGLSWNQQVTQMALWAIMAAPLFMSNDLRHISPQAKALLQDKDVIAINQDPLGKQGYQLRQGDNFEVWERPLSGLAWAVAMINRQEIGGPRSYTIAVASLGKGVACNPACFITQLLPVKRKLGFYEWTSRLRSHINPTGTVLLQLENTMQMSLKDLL
# An asterisk follows results filed as active; ? = inconclusive; . = not tested or not shown; [ ] = dose if it differs, or a comment.
# Below each compound – Rango-impB inh	miR-21 FLuc	Rango dissoc inh	GLA inh pH 4.5
> Cc1cc(C)c(C)c(S(=O)(=O)N2CCNCC2)c1C
    0.4%	-1%	-10%	2
> CCc1ccccc1NCC(=O)Nc1ccccc1C(=O)OC
    -0.8%	-15%	-7%	-20
> COc1cccc(Oc2cn[nH]c2-c2ccc(OC)cc2O)c1
    4.3%	15%	0%	-5
> O=C(Nc1cccc(O)c1)C1CC(c2c(F)cccc2Cl)=NO1 (stereo unspecified)
    3.8%	-26%	-5%	.
> Cc1cc(C)cc(N(CC(=O)N/N=C/c2ccncc2)S(=O)(=O)c2ccccc2)c1
    0.5%	-3%	3%	-7
> Cc1ccc(-n2nc3c(c2NC(=O)c2ccc4c(c2)OCO4)CS(=O)C3)c(C)c1 (stereo unspecified)
    -1.3%	.	10%	.
> N#CCC(=O)Nc1ccc(C(F)(F)F)cc1N1CCOCC1
    0.3%	-7%	-11%	-17
> CCN1CCN(C(=O)Cn2cnc3sc(C)c(S(=O)(=O)N4CCN(c5ncccn5)CC4)c3c2=O)CC1
    -0.9%	-2%	2%	-2[21.1 µM]
> COc1ccccc1CN(C)c1ccc(S(=O)(=O)N2CCN(C)CC2)cn1
    -0.1%	.	-8%	.
> CCN1C(=O)[C@H]2[C@@H](c3ccc(C)cc3)N3C(=O)N(c4ccc(C(F)(F)F)cc4)C(=O)[C@@]3(Cc3ccccc3)[C@H]2C1=O
    -3.3%	1%	-5%	.
> COc1ccc(-n2cccc2/C=C/[N+](=O)[O-])cc1
    -3.9%	23%	0%	-3
> COc1ccc(/C=C(/NC(=O)c2ccco2)C(=O)Nc2ccc(C(C)=O)cc2)cc1
    -4.4%	2%	3%	.
> O=C(O)[C@@H]1CCCN1c1ncnc2sc3c(c12)CCC3
    -3.5%	-2%	-11%	3
> COc1ccc(CN(C)C(C)C(=O)Nc2ccc(S(=O)(=O)N3CCCCC3)cc2)cc1F (stereo unspecified)
    0.2%	.	10%	.
> CCCn1c(=O)c(Cc2ccccc2)c(O)c2ccccc21
    4.1%	1%	10%	-8
> O=C1C2CCCN2C(=S)N1c1ccc(Cl)cc1 (stereo unspecified)
    -1.2%	2%	1%	.
> COc1cc(C2c3cc(O)c(OC)cc3CC(C(=O)O)C2CO)ccc1O (stereo unspecified)
    -1.6%	.	-1%	.
> CCOC(=O)CN1C(=O)C(Sc2n[nH]c(-c3cccc(C)c3)n2)CCc2ccccc21 (stereo unspecified)
    -6.2%	24%	22%	2
> CC1(C)CC(NC(=O)c2ccc(Cl)cc2Cl)CC(C)(C)N1
    0.0%	-2%	3%	.
> Cc1ccc(NC(=O)CN2C(=O)S/C(=C\c3ccc(C(=O)O)cc3)C2=O)cc1
    -2.7%	1%	16%	.
> O=C(Nc1ccc2c(c1)OCO2)N1CCN(c2ncc(C(F)(F)F)cc2Cl)CC1
    -2.6%	-11%	6%	-9
> CCN(CC(=O)Nc1c(F)cccc1F)C(=O)CCSc1ccc(C)cc1
    -1.0%	.	1%	.
> COc1ccc(NC(=O)c2cccc(-n3cnnn3)c2)cc1
    -4.4%	-18%	4%	-3
> COc1ccc(C(=O)NCCN2CCCC2)cc1[N+](=O)[O-]
    -1.1%	-4%	1%	.
> COCCOC(=O)C1=C(C)OC(N)=C(C#N)C1c1cc2cccc(C)c2nc1Cl (stereo unspecified)
    -5.0%	-7%	8%	-6
> CCOc1ccc(Br)cc1S(=O)(=O)NCc1ccncc1
    -1.7%	3%	1%	6
> O=C(CN1C(=O)S/C(=C\c2ccc(Cl)cc2)C1=O)NNC(=O)c1ccccc1O
    0.4%	-7%	-19%	5
> CN(C)CCN(C(=O)CN1C(=O)c2ccccc2C1=O)c1nc2cc3c(cc2s1)OCCO3
    5.0%	.	-10%	.
> CCCCCCCC(=O)N/N=C/c1ccco1
    -0.3%	-9%	1%	5
> NC(=S)NN=Cc1nccc2ccccc12
    1.9%	.	5%	.
> CC(C)N(Cc1ccccc1)C(=O)COC(=O)CCC(=O)c1ccc(F)cc1
    -2.1%	.	-9%	.
> COC(=O)c1c(C)oc2ccc(N(C(=O)c3ccncc3)S(=O)(=O)c3ccc4ccccc4c3)cc12
    5.8%	28%	1%	-6
> Cc1ccc(CNC(=O)c2cn(C)c(=O)c3c2c2ccccc2n3C)o1
    -0.8%	4%	-3%	12
> O=C(CC(C(=O)O)c1ccc(Cl)cc1)c1ccccc1 (stereo unspecified)
    -1.5%	0%	21%	3
> CC1(C)CC(NC(=O)C(c2ccccc2)c2ccccc2)CC(C)(C)N1
    4.7%	-7%	-2%	.
> Cc1ccc(N2CC(c3nc4ccccc4n3C)CC2=O)cc1C (stereo unspecified)
    -2.6%	-5%	8%	2
> CN1CCN(Cc2c(O)ccc3c(=O)c(Oc4ccccc4Cl)c(C(F)(F)F)oc23)CC1
    -3.6%	-6%	-5%	-7
> COc1ccc(S(=O)(=O)Nc2ccc3oc(C)c(C(C)=O)c3c2)cc1
    -0.2%	24%	9%	2
> COc1ccc(NC(=O)[C@H](NC(=O)[C@@H]2Cc3ccccc3CN2)c2ccccc2)cc1
    -1.4%	0%	0%	.
> C[C@]12CCC(=O)C[C@@H]1CC[C@@H]1[C@@H]2CC[C@]2(C)C=CC[C@@H]12
    -1.1%	-1%	5%	-10
> CCOc1cc(/C=N/NC(=O)CCn2nc(C)cc2C)ccc1O
    1.8%	1%	18%	-2
> CN(C)c1nc(NCc2ccccc2)nc(N/N=C/c2ccc(Cl)cc2Cl)n1
    4.4%	0%	13%	1
> CC(=O)c1cccc(OCC(=O)N2CCN(c3ccc(C(F)(F)F)cn3)CC2)c1
    -0.1%	0%	19%	-1
> CCn1cc(C(=O)N2CCc3ccccc32)c(=O)c2cc(S(=O)(=O)N3CCCCCC3)ccc21
    1.1%	1%	1%	-16
> CCOC(=O)c1cc(NC(=O)c2ccc(Cl)cc2)c(=O)oc1-c1ccccc1
    ?	-2%	-18%	5
> Cc1c(NS(=O)(=O)c2ccccc2)cc(Cl)c(O)c1C
    -2.8%	3%	-1%	15
> CC(C)(C)N(Cc1ccccc1)C(=O)COC(=O)c1ccc(Br)o1
    -0.2%	.	7%	.
> CCN(CC)c1ccc(C(=O)OCC(=O)N2CCN(c3ccccc3)CC2)cc1
    0.4%	-2%	0%	4
> C/C(=N/NC(=O)Cc1cccs1)c1ccco1
    6.8%	-24%	9%	6
> COc1ccc(S(=O)(=O)Nc2nnc(C)s2)cc1
    2.8%	-1%	5%	-5

# (cont.)
# Below each compound – Rango-impB inh	miR-21 FLuc	Rango dissoc inh	GLA inh pH 4.5
> OC(COCc1cccs1)CN1CCN(c2cccc(Cl)c2)CC1 (stereo unspecified)
    2.6%	-2%	-6%	-11
> COc1ccc(S(=O)(=O)N2CCC(C(=O)NCc3ccccn3)CC2)cc1Cl
    -0.5%	-5%	-7%	-10
> Cc1ccc(CSCc2nnc(SCC(=O)N3CCN(c4ccccc4)CC3)n2C)cc1
    3.9%	27%	-4%	11
> Cc1c(Cl)c(C(=O)NNC(=S)Nc2ccc(F)cc2)nn1C
    -0.6%	-46%	0%	6
> CCOC(=O)C1(CCCc2ccccc2)CCN(C(=O)Cn2nc(C)nc2C)CC1
    -2.4%	5%	8%	1
> COc1cc(C(=O)OCC(=O)NC2CCCCCC2)ccc1OCC(C)C
    1.2%	.	13%	.
> Cc1ccc(CN2CCN(c3cccc4[nH]ccc34)CC2)cc1
    1.0%	-11%	0%	.
> CCOC(=O)C1(CCOc2ccccc2)CCN(Cc2cccn2-c2ncccn2)CC1
    3.2%	-2%	3%	-8
> Cc1ccc(CCNC(=O)c2nnn(-c3cc(C)cc(C)c3)c2N)cc1
    0.3%	-2%	-5%	-7
> Cn1c(=O)n(CCCOc2ccc(Cl)cc2)c2ccccc21
    -1.0%	-31%	0%	-1
> Cn1nc([N+](=O)[O-])nc1S(C)(=O)=O
    -2.9%	?	-12%	0
> O=C(CCNc1ccc(Cc2ccncc2)cc1)c1cccc([N+](=O)[O-])c1
    2.4%	-1%	-1%	-3
> CN(C)c1cccc(C(=O)OCC(=O)NCC2CCCO2)c1 (stereo unspecified)
    2.5%	-6%	-5%	1
> COc1cc(CNC2CCCC2)cc(Cl)c1OCc1ccc(F)cc1
    4.2%	?	12%	-10
> O=C1CN(CC(=O)NC2CCCc3ccccc32)CCN1 (stereo unspecified)
    0.0%	-2%	8%	.
> O=C(/C(=C(\[O-])c1ccccc1)[n+]1ccc2ccccc2c1)c1ccccc1
    ?	-30%	1%	-5
> COc1ccccc1N1CCN(C(=O)c2ccc(COc3cccc4c3OC(C)(C)C4)cc2)CC1
    -0.3%	.	-4%	.
> O=C(CN(C(=O)CCC(=O)Nc1nccs1)c1ccc2c(c1)OCCO2)NCc1ccco1
    0.4%	-3%	2%	3
> O=C(CCN1C(=O)/C(=C/c2ccccc2)SC1=S)NCCc1ccc(O)cc1
    0.0%	10%	14%	.
> CC(C)Nc1oc(-c2cccc3ccccc23)nc1C#N
    -3.3%	-66%	8%	?
> O=C(Nc1ccc(Br)cc1)c1cccc(S(=O)(=O)Nc2ccccn2)c1
    2.9%	-1%	-10%	.
> O=C(NCc1ccc(-n2cccc2)cc1)c1cccc(F)c1
    1.7%	-6%	12%	1
> O=S(=O)(c1ccccc1)N1CCN=C1SCc1c(F)cccc1Cl
    -0.7%	-17%	10%	.
> O=C(CSc1cccc(C(F)(F)F)c1)NCc1ccccc1
    1.8%	-4%	-10%	-1
> COc1cc(-c2nc3c[n+](CC(=O)c4ccccc4)ccc3n2C)cc(OC)c1OC
    -3.6%	-5%	-16%	2
> CCOC(=O)COc1cc2c3c(c(=O)oc2cc1C)CCCC3
    0.5%	1%	-7%	6
> COc1ccc(NC(=O)C2CCC(C(C)(C)C)CC2)cc1S(=O)(=O)N1CCCCC1 (stereo unspecified)
    -1.4%	1%	0%	-10
> CCOC(=O)c1c(NC(=O)CSc2nnnn2C)sc(C(=O)N(C)C)c1C
    3.1%	-4%	9%	-2
> Cc1ccc(OCc2cc(C(=O)N3CCC(Oc4cccnc4)CC3)no2)cc1C
    0.5%	4%	-1%	.
> Cc1nn(Cc2ccc(Cl)cc2Cl)c(C)c1NC(=O)CCl
    -0.5%	?	12%	-12
> Cc1cccc(-n2cc(CNCCc3nc(C)cc(C)n3)c(-c3cccc(F)c3)n2)c1
    -0.1%	26%	-1%	-3
> CC[C@H](C)[C@H](NC(N)=O)C(=O)Nc1ccc(OC)c(Cl)c1
    -3.3%	5%	1%	8
> COc1ccccc1CNC(=O)CCNS(=O)(=O)c1ccc2[nH]c(=O)oc2c1
    -0.4%	0%	-17%	.
> CC1=NN(c2ccc(C(=O)O)cc2)C(=O)CC1
    0.9%	-25%	0%	.
> O=C1OCCC1Sc1nnc(-c2ccc(Cl)cc2)n1Cc1ccccc1 (stereo unspecified)
    -1.0%	-11%	-3%	0
> O=C(O)CCC(=O)Nc1ccc(C(=O)OC2CCCCC2)cc1
    4.2%	?	0%	-14
> CCOC(CCn1c(SCC(=O)Nc2cc(C)on2)nc2ccccc2c1=O)OCC
    0.8%	-3%	-2%	-1
> CCOCCCNS(=O)(=O)Cc1ccccc1
    -3.5%	-2%	23%	-2
> COc1ccccc1CNN
    2.8%	1%	-16%	1
> Cc1ccc(NC(=O)C2=CCN(S(=O)(=O)c3ccc(F)cc3)CC2)c(C)c1
    4.8%	-5%	48%	1
> COc1ccc(S(=O)(=O)Cc2ccc(C(=O)NCCCN(C)c3ccccc3)o2)cc1
    -2.3%	0%	-8%	-4
> COc1ccc(S(=O)(=O)Nc2ccc(Oc3ncccn3)c(Cl)c2)cc1
    0.6%	0%	-10%	3
> COc1cc(-c2nc(-c3ccccc3)c(-c3ccc(F)cc3)[nH]2)cc2c1OCO2
    -0.6%	-11%	1%	-12
> COc1cc(OC)cc(C(=O)Nc2nnc(SCC(=O)NCc3ccco3)s2)c1
    4.2%	-26%	2%	.

# A portion of the library (hit frequency here may not be typical).
